Menin-MLL FL inh – menin-MLL binding inhibition, fluorescein peptide | Fluorescence polarization, fluorescein-MLL peptide displacement from menin | FP activity change, % at 61.4 µM | 290,000 tested, under 10 active | AID 1766; inconclusive = falling polarisation curve, or a change in total fluorescence; inactive = total fluorescence flat and polarisation flat or rising; no compound was filed as active; the % refers to the polarisation; negative = inhibition;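 further: % of control where 0% means no effect; inhibitors lower the polarisation; unlabelled MLL peptide was the positive control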
D2 ag – human D2 receptor agonism in beta-arrestin assay | P14416 | DiscoveRx PathHunter D2 beta-arrestin, luminescence, 90 min; 100% = 57 uM dopamine signal | activation, % (no concentration beside the values) | 360,000 tested, 0.084% active; in the data active = activation above about 40%; inconclusive = about 15% to 40%; inactive = below about 15%; further: compound concentration not given in the record; the text of the record calls up to 30% inactive
Target sequence (P14416 whole entry, looked up): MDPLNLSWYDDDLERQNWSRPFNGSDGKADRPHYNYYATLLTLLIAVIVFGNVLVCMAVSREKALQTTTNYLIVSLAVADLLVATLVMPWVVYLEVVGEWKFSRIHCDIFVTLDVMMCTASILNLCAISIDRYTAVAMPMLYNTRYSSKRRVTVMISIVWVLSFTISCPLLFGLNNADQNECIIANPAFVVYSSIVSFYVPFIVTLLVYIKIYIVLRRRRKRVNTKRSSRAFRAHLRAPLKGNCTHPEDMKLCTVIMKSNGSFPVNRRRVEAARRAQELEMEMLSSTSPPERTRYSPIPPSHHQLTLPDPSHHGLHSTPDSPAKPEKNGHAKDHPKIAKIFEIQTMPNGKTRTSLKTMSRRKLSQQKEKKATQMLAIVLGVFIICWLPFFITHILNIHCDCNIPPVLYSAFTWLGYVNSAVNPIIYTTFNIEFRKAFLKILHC
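Agonist mode: compounds alone added to overnight-plated D2 PathHunter cells for 90 min at 37 C, with 57 uM final dopamine (EC100) defining full response. Beta-arrestin recruitment detected by chemiluminescent reagent, read after 1 h at ambient temperature.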
gsp ag – agonists of gsp mutant (McCune-Albright syndrome); 340,000 tested, 0.13% active; Potency, µM (doses to about 76.9 µM), without a hit: at the highest dose activation (cAMP increase), usual class: activators; gsp mutant cells, cAMP HTRF, 30 min; control for the full effect not named in the record; AID 624287; active = well fitted activation curve with a large enough effect; inconclusive = small, poorly fitted or top-dose-only effect, or another doubt; inactive = no such curve, though single readings can be large or run the other way; cell line not stated here;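 further: phosphodiesterase inhibitor Ro 20-1724 added with compounds to block cAMP breakdown; potency means the concentration at half of the fitted maximal effect; nearly all actives have a fitted effect of over 60% in size; about a fifth of the inactives were tested at one dose only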
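Cells stably selected in G418 were plated at 2000/well, grown 16-24 hr, then given compounds in DMSO with the PDE inhibitor […] (300 uM solution added) for 30 min at 37C; cAMP was read by HTRF.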
ClpP mod – qHTS Assay for Activators of ClpP. ATP-dependent Clp protease proteolytic subunit (Bacillus subtilis (strain 168)), P80244. purified B. subtilis ClpP, FRET peptide cleavage, 20 min. Potency, µM (titrated, usually from 57.5 µM), for inactives: at the highest dose activity change, negative = active. 340,000 tested, 1.9% active; active = well fitted falling curve with a large enough effect; inconclusive = small, poorly fitted or top-dose-only effect; inactive = no such curve, though single readings can be large or run the other way; further: potency means the concentration at half of the fitted maximal effect; the source files actives as falling curves though it sought activators and does not explain the sign; nearly all actives have a fitted effect of over 65% in size; many hits overshoot -100%
Target sequence (P80244 whole entry, looked up): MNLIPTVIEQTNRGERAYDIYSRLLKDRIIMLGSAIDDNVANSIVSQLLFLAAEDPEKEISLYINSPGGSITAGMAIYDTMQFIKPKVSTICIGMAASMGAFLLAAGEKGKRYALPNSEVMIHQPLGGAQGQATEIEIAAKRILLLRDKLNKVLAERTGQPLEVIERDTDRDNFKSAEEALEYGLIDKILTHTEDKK
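Purified B. subtilis ClpP, 10 microg/mL final in Tris/HCl pH8 with KCl, BSA, glycerol and Tween-20, cleaved an Abz/nitrotyrosine-quenched decapeptide. Fluorescence (ex 320, em 430) was read at 0 and 20 min at room temperature. Delta was normalized to 5.8 microM ADEP and DMSO/no-enzyme controls.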
PINK1 modulator – modulators of PINK1 expression; Potency, µM (highest dose often 76.6 µM), inactives show top-dose activation (PINK1 increase), hits mostly activators; 410,000 tested, 0.2% active; PINK1 immunofluorescence, high-content cytometry, 24 h; active = well fitted activation curve with a large enough effect; inconclusive = small, poorly fitted or top-dose-only effect; inactive = flat fitted curve, though single readings scatter; cell line not stated here;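 further: potency means the concentration at half of the fitted maximal effect; % of control where 0% means no effect; nearly all actives have a fitted effect of over 65% in size; a mitochondrial uncoupler was the plate control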
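Fluorescence from anti-PINK1 antibody, together with nuclear and cell stains, was scanned on a laser-scanning cytometer. Before staining, stable-line cells were incubated 24 hours with compounds at 5 concentrations; primary antibody 12 h at 10 degrees C.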
Sfp PPTase inh – blocks B. subtilis Sfp PPTase activity; Biochemical Sfp PPTase activity, qHTS; Q9F4F7; Potency, µM, for inactives: max response, negative = inhibition, usual class: inhibitors; AID 1490; 310,000 tested, 3.5% active; active means well fitted inhibition curve with a large enough effect; inconclusive means small, poorly fitted or top-dose-only effect, or another doubt; inactive means no such curve, though single readings can be large or run the other way;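 further: the enzyme is Sfp with the accession as filed and its product quenches rhodamine fluorescence; potency means the concentration at half of the fitted maximal effect; 0% = enzyme reaction without inhibitor and -100% = no enzyme wells; top concentration of the series not given in the record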
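Step 1, compound plus 15 nM Sfp-PPTase, 15 min, room temperature. Step 2, add rhodamine-CoA (5 uM) and BHQ-2-YbbR (12.5 uM). Step 3, read 525/598 nm fluorescence at 0 and 30 min.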
gsp antagonist – antagonizes gsp, the McCune-Albright syndrome mutation; gsp-mutant cells, cAMP HTRF, 30 min; control for the full effect not named in the record; Potency, µM (series often up to 76.9 µM), for inactives: at the top dose activity change, negative = inhibition, actives largely listed as inhibitors; 340,000 tested, 0.4% active; active = falling curve of any shape with a large fitted effect; inconclusive = falling curve, mostly with a smaller effect; inactive = flat or rising curve; cell line not stated here;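 further: intracellular cAMP measured with PDE inhibitor Ro 20-1724 present during compound exposure; potency means the concentration at half of the fitted maximal effect; on the % scale 0 is the no-effect control and ±100 the full control effect; nearly all actives have a fitted effect of over 65% in size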
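Cells, 2000/well, grown 16–24 h in DMEM 10% FBS with 0.5 mg/ml G418, then compounds plus […] (300 uM addition stock), 30 min at 37C. cAMP read by HTRF (cAMP-d2 and anti-cAMP antibody-K in lysis buffer) after 30 min RT.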
Starred values were filed as active, the others as inactive; u = inconclusive; x = not tested or not shown; & = joins results of further samples; [ ] = another dose, or the depositor's remark.

SMILES	Menin-MLL FL inh	D2 ag	gsp ag	ClpP mod	PINK1 modulator	Sfp PPTase inh	gsp antagonist
CC(=O)c1sc2nc(-c3ccc(C)cc3)c3c(c2c1N)CCCC3	2.2	-1.4	u	-29.0%	0.8%	35.5µM*	-21.1%
O=C(Nc1ccc(O)c(-c2nc3ccccc3s2)c1)c1cccs1	1.2	-3.7	10.2%[15.4 µM]	28.2µM*	15.9%	u	-25.7%
COc1cc(C(=O)NCc2cc(C)nc3ccccc23)cc(OC)c1OC	-3.8	-3.4	3.4%[15.4 µM]	-21.8%	5.5%	5.4%	-8.7%
CC(=O)Nc1ccc(S(=O)(=O)N2CCN=C2SCc2cccc(C)c2)cc1	1.1	9.8	-29.5%[15.4 µM]	1.2%	0.4%	1.6%	0.9%
Cc1ccc(S(=O)(=O)N/N=c2\sc3ccccc3n2C)cc1	0.3	-0.7	26.8%	2.8%	2.5%	1.9%	13.3%
COc1cccc(CN2CC(C(=O)NCCCn3cccn3)CCC2=O)c1 (stereo unspecified)	x	-4.8	11.9%[15.4 µM]	x	-0.4%	10.1%	10.4%
Cc1c(C(=O)N2CCCc3ccccc32)oc2ccccc12	-1.8	-1.2	-3.8%	x	-1.2%	-8.7%	-9.8%
CC1CCCCC1NS(=O)(=O)c1ccc2c(c1)CC(=O)N2C (stereo unspecified)	0.1	-2.2	-1.2%	1.1%	1.9%	10.9%	2.5%
COc1ccc(C(=O)Nc2cnc3ccccn3c2=O)cc1	-0.5	-1.2	u	-15.5%&-17.8%	0.2%&0.1%	30.4%[activator]	1.0%
O=S(=O)(c1cnc(Cl)c(Cl)c1)N1CCc2ccccc21	0.9	-1.5	6.9%	1.0%	-1.0%	12.3%	-6.6%
O=C(NCc1ccccn1)c1cc2c(ccc3ccccc32)oc1=O	-3.8	-7.4	-38.3%[inhibitor]	4.7%	1.3%	3.8%	-1.1%
O=c1cc(-c2ccccc2)nc2nc(CCc3ccccc3)[nH]n12	0.4	-5.5	u	-1.9%	-1.2%	-3.7%	0.4%[15.4 µM]
COc1ccc(C(=O)NCC(C)NC(=O)c2ccc(OC)cc2)cc1 (stereo unspecified)	x	-3.5	-7.1%	-0.7%	-0.1%	x	3.4%
O=C(COC(=O)c1ccccc1F)Nc1ccc(S(=O)(=O)N2CCOCC2)cc1	x	2.7	-10.7%	6.6%	-0.5%	x	8.9%
CCOC(=O)c1c(O)c2ccccc2n(C)c1=O	3.9	2.5	26.7%	x	-0.3%	2.9%	0.7%
O=C1NC2(CCCCO2)CO1 (stereo unspecified)	-4.0	-3.7	x	-12.8%	-0.5%	6.6%	5.9%
CNC(=O)c1cc(S(=O)(=O)N(C)C)ccc1Cl	-1.8	-2.1	-10.6%	1.5%	-0.4%[38.3 µM]	11.0%	7.1%
Fc1ccc(-c2nc3ccc(Br)cn3c2Cc2ccsc2)cc1	x	3.5	x	-1.6%	-1.4%	x	x
Cc1ccc2c(c1)N1C(=O)c3ccccc3C1C1=C(CC(C)(C)CC1=O)N2 (stereo unspecified)	3.9	-2.1	-7.4%	-2.1%	0.3%	-1.0%	-9.4%
O=C(Nc1cccc2cccnc12)c1ccc(Br)cc1Br	3.0	2.0	12.4%[15.4 µM]	-1.5%	0.7%	3.9%	2.7%
CC(=O)C[C@H](O)CC(=O)[C@@H]1OC(=O)[C@@H](C)C/C=C\Cc2ccccc21	x	-0.2	x	1.1%	0.5%	x	4.8%
O=C(O)C1CCCCC1C(=O)Nc1cc(C(F)(F)F)ccc1Cl (stereo unspecified)	0.2	1.7	9.1%	-3.6%	-0.5%	16.2%	0.4%
CN1CCN(S(=O)(=O)c2ccc(NC(=O)c3ccccc3Cl)cc2)CC1	-1.2	-3.2	23.9%	x	2.7%	12.0%	13.4%
COc1ccc(C(=O)N2CCNC(=O)C2CC(=O)Nc2ccc(C)cc2)cc1 (stereo unspecified)	-5.5	0.5	-6.8%[15.4 µM]	-0.4%	-0.7%	12.1%	10.6%
O=C(O)C1CCCCC1C(=O)NCCc1c[nH]c2ccccc12 (stereo unspecified)	3.9	-1.8	-3.0%	-9.9%	1.7%	8.0%	-8.5%

Other results:
SMILES	Menin-MLL FL inh	D2 ag	gsp ag	ClpP mod	PINK1 modulator	Sfp PPTase inh	gsp antagonist
CC(C)CCOc1cccc(OCC(=O)N(C)C2CCS(=O)(=O)C2)c1 (stereo unspecified)	-0.4	2.1	0.0%	-4.2%	0.5%	-9.2%	-11.9%
CCCC(=O)Nc1ccc(S(=O)(=O)N2CCc3ccccc32)cc1	x	-2.1	-71.6%[inhibitor]	-3.5%	4.3%	x	x
O=C1/C(=C/c2cccc(Br)c2)SC(=S)N1/N=C/c1cc([N+](=O)[O-])ccc1O	7.2	-3.6	-36.1%	0.7%	4.0%	-17.5%	-12.0%
COc1ccc(NC(=O)C(C)N2C(=O)c3ccccc3C2=O)cc1S(=O)(=O)N1CCOCC1 (stereo unspecified)	0.7	2.0	7.3%	x	3.0%	8.3%	6.2%
O=C(c1c(F)cccc1F)N(Cc1ccccn1)C1CC1	0.6	-3.2	-38.6%[inhibitor]	-2.4%	0.0%	5.9%	-4.0%
Cc1cc(N(C)C)cc(C)[n+]1[O-]	0.2	0.4	-35.3%	-9.0%	2.3%	8.7%	u
O=C(COC(=O)/C=C/c1cccc(Br)c1)Nc1ccc(Cl)cn1	x	-2.5	3.3%	0.6%	-0.9%	x	x
CC(=O)Nc1cc(NC(=O)CCCC(=O)O)ccc1Cl	3.3	1.3	-0.5%	0.1%	-0.4%	-3.9%	9.3%
COc1ccc(/C=N\NC(=O)c2ccccc2Br)cc1COc1c(F)c(F)cc(F)c1F	0.9	4.2	4.6%	-2.3%	3.7%	2.8%	-11.5%
Cc1nnc(NC(=O)CSc2ccc([N+](=O)[O-])cn2)s1	-0.1	-2.0	u	1.7%	-0.8%	-5.8%	5.0%
COc1cccc(CCc2nnc(N)s2)c1	4.8	-5.1	-1.9%	-1.0%	1.3%	-15.5%	6.2%
CC(NC(=O)c1ccco1)C(=O)OCc1cccc(Cl)c1 (stereo unspecified)	0.7	-2.2	-26.0%	-1.2%	0.0%	-10.1%	-3.6%
Cc1ccc(NC2=NC(c3ccc(F)cc3)n3c(nc(C)cc3=O)N2)c(C)c1 (stereo unspecified)	5.4	-3.8	19.3%	x	9.4%	17.5%	2.4%
COc1ccc(S(=O)(=O)N2CCOCC2)cc1N=Nc1sc(N)nc1-c1ccccc1	1.7	-7.9	28.1%	-5.4%	3.8%	-2.9%	14.0%
Oc1ccc(-c2nc3ccccc3s2)c(O)c1	0.3	-8.8	32.5%[15.4 µM]	x	7.6%	-17.3%	1.2%
COC(=O)c1c(NC(=O)CSc2nnnn2-c2ccc3c(c2)OCO3)sc(C)c1C	-1.2	-2.1	21.4%	0.4%	-0.9%[38.3 µM]	2.1%	-7.7%
CCc1ccc2oc(C(=O)NCC(c3ccc(OC)cc3)N3CCCCC3)c(C)c2c1 (stereo unspecified)	x	-0.9	27.3%	-7.4%&-0.6%	u	-29.3%	12.9%
COc1ccc(-c2cc3c(c4c2ccn4C)C2CCC3C2)cc1 (stereo unspecified)	x	-3.4	x	4.7%	u	x	x
CCOC(=O)c1[nH]c2ccccc2c1NC(=O)c1ccc(S(=O)(=O)N2CCCC2)cc1	2.8	-3.9	2.3%	10.7%	2.6%	12.4%	-27.0%
CCOC(=O)c1c(NS(=O)(=O)c2ccc(Br)cc2)sc2c1CCC2	x	-4.1	-0.2%	2.5%	-1.9%	x	u
CCc1ccccc1NC(=S)NCc1cccn1C	-0.3	-4.0	-9.3%	1.0%	0.3%	4.9%	12.9%
COCCn1c(C)cc(C(=O)CSc2n[nH]c(N)n2)c1C	20.6	-0.4	7.5%	2.0%	0.8%	25.1µM*	12.7%
Cn1c(=O)c2c(n(Cc3ccccc3)c1=O)NC(=O)C2CC(=O)NCc1cccc(Cl)c1 (stereo unspecified)	3.7	-2.0	6.3%	0.9%	0.5%	5.8%	2.0%
CCOc1ccc(NC(=O)COC(=O)C2CCC(=O)N2)c([N+](=O)[O-])c1 (stereo unspecified)	x	10.5	-9.3%	-2.1%	-0.2%	x	15.2%
CCOc1ccc2nc(SCc3ccc(F)cc3)sc2c1	-1.7	-1.2	4.5%	-2.6%	2.0%	-6.8%	-3.3%

(list continues)
SMILES	Menin-MLL FL inh	D2 ag	gsp ag	ClpP mod	PINK1 modulator	Sfp PPTase inh	gsp antagonist
COc1cccc(C(=O)Nc2ccc(S(=O)(=O)N3CCN(C)CC3)cc2)c1	-1.9	-2.1	-12.7%	x	-2.3%	0.1%	6.0%
CC(C)CN1CCC(CN(C)Cc2nc(-c3cnccn3)no2)CC1	1.1	-2.2	-17.3%[15.4 µM]	x	0.2%	7.9%	17.9%
N#Cc1ccc(CN2CCCC3(CCN(C(=O)c4cc(C(F)(F)F)cc(C(F)(F)F)c4)CC3)C2)cc1	13.2	x	x	x	1.7%	7.6%	x
O=C(Nc1ccccc1Cl)NC1(C(=O)N2CCCCC2)CCCCC1	4.5	-3.7	-29.3%	0.3%	0.0%	1.3%	10.0%
O=C1NCC(COCc2ccccc2)O1 (stereo unspecified)	-1.4	-3.0	10.0%	-0.3%	0.3%	10.7%	10.9%
COCCNC(=O)c1ccc(Cn2c(SCC(=O)NCC3CCCO3)nc3ccc(Br)cc3c2=O)cc1 (stereo unspecified)	-0.1	0.7	15.9%	0.3%	3.1%	-12.8%	-11.1%
Cc1ccc(NC(=O)COc2ccc3c(c2)OCO3)c(C)c1	x	-3.3	-8.4%	-1.3%	0.2%	x	-8.9%
O=C(NCCN1CCOCC1)c1cccc(S(=O)(=O)N(Cc2ccccc2)c2ccccc2)c1	x	2.0	u	0.5%	-6.1%	x	-8.3%
O=C(/C=C/c1ccccc1[N+](=O)[O-])N1CCOCC1	-0.2	2.9	-1.7%[15.4 µM]	u	-1.1%	-4.0%	2.7%

Source: PubChem BioAssay
